Anaer choline gr: inhibitors of anaerobic choline-dependent gram-negative bacterial growth | 55,000 tested, 0.2% active | AID 1963822 | calls only | Gram-negative bacterium anaerobic choline minimal medium, absorbance growth; stronger effect = lower value; many inactives read as strong as hits in the columns shown;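 active = growth z-score on choline under -2 at 7 or 20 h with little or no fall on glycerol, limits in tiers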;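 also: stock transfer was 300 nL into about 50 µL; the organism is E. coli; final concentration not given here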
Anaer choline gr early: further read-out of Anaer choline gr, marked with its call; z-score; measured here: choline growth z-score, timepoint 1;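 score of optical density at 7 h as mean of two plates; lower means less growth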
An asterisk follows results filed as active; & = joins results of further samples.

Start of the listing, in advance (nine entries):
What do the screens show for `CO/N=C(\C(=O)N[C@@H]1C(=O)N2C(C(=O)O)=C(COC(C)=O)CS[C@H]12)c1csc(N)n1` (stereo in doubt)?
Anaer choline gr: inactive; Anaer choline gr early: 0.16&-3.1

How did CS(=O)(=O)Nc1ccc([N+](=O)[O-])cc1Oc1ccccc1 do in these assays?
Anaer choline gr: inactive; Anaer choline gr early: -0.39&0.45&0.43&0.14

What do the screens show for `CCCNC(=O)C1CC(=O)N(CCc2c[nH]c3ccc(Cl)cc23)C1` (stereo unspecified)?
Anaer choline gr: inactive; Anaer choline gr early: 0.81

Results for CCCCn1nnnc1NCc1ccc2c(c1)n(C)c(=O)n2C ?
Anaer choline gr: inactive; Anaer choline gr early: 0.07

Results for CCc1c(C)nc2nc(NCc3cccc(C)c3)[nH]n2c1=O ?
Anaer choline gr: inactive; Anaer choline gr early: -0.37

Results for Cc1nc(-c2ccccc2)nc2c1CCC(=O)N2CC1CC1 ?
Anaer choline gr: inactive; Anaer choline gr early: 0.33

What do the screens show for `O=C(CC1Nc2ccccc2NC1=O)NC1CCCCC1` (stereo unspecified)?
Anaer choline gr: inactive; Anaer choline gr early: -0.89

How did Cc1csc(-c2cc(S(=O)(=O)Nc3cccc(Cl)c3)c(C)s2)n1 do in these assays?
Anaer choline gr: inactive; Anaer choline gr early: 1.6

What do the screens show for `CCNc1cc(C)nc(Nc2ccc(NC(=O)CC)cc2)n1`?
Anaer choline gr: inactive; Anaer choline gr early: -0.32

The list itself (from the top)
What do the screens show for `CO/N=C(\C(=O)N[C@@H]1C(=O)N2C(C(=O)O)=C(COC(C)=O)CS[C@H]12)c1csc(N)n1` (stereo in doubt)?
Anaer choline gr: inactive; Anaer choline gr early: 0.16&-3.1

How did CS(=O)(=O)Nc1ccc([N+](=O)[O-])cc1Oc1ccccc1 do in these assays?
Anaer choline gr: inactive; Anaer choline gr early: -0.39&0.45&0.43&0.14

What do the screens show for `CCCNC(=O)C1CC(=O)N(CCc2c[nH]c3ccc(Cl)cc23)C1` (stereo unspecified)?
Anaer choline gr: inactive; Anaer choline gr early: 0.81

Results for CCCCn1nnnc1NCc1ccc2c(c1)n(C)c(=O)n2C ?
Anaer choline gr: inactive; Anaer choline gr early: 0.07

Results for CCc1c(C)nc2nc(NCc3cccc(C)c3)[nH]n2c1=O ?
Anaer choline gr: inactive; Anaer choline gr early: -0.37

Results for Cc1nc(-c2ccccc2)nc2c1CCC(=O)N2CC1CC1 ?
Anaer choline gr: inactive; Anaer choline gr early: 0.33

What do the screens show for `O=C(CC1Nc2ccccc2NC1=O)NC1CCCCC1` (stereo unspecified)?
Anaer choline gr: inactive; Anaer choline gr early: -0.89

How did Cc1csc(-c2cc(S(=O)(=O)Nc3cccc(Cl)c3)c(C)s2)n1 do in these assays?
Anaer choline gr: inactive; Anaer choline gr early: 1.6

What do the screens show for `CCNc1cc(C)nc(Nc2ccc(NC(=O)CC)cc2)n1`?
Anaer choline gr: inactive; Anaer choline gr early: -0.32

Results for Cc1ccc(NC(=O)C2=Cc3ccc(C)cc3OC=C2)cc1 ?
Anaer choline gr: inactive; Anaer choline gr early: 1.2

How did CCOC(=O)C1CCCN(C(=O)c2cc3c(s2)-c2c(C)nn(-c4ccccc4)c2CC3)C1 (stereo unspecified) do in these assays?
Anaer choline gr: inactive; Anaer choline gr early: -0.29

How did CCOC(=O)c1[nH]c2ccccc2c1NC(=O)c1ccccc1C do in these assays?
Anaer choline gr: inactive; Anaer choline gr early: 0.52

What do the screens show for `COCCNC(=O)Cc1ccc(-n2c(=O)c3ccccc3n(CC(=O)NC3CCCCC3)c2=O)cc1`?
Anaer choline gr: inactive; Anaer choline gr early: -1.1

How did Cc1ccc(Cl)cc1NC(=O)c1ccc(CN2C(=O)CCn3nccc32)cc1 do in these assays?
Anaer choline gr: inactive; Anaer choline gr early: -0.83

What do the screens show for `COc1ccc(NS(=O)(=O)c2cc(-c3ccc(=O)[nH]n3)cc(C)c2C)cc1`?
Anaer choline gr: inactive; Anaer choline gr early: 0.41

What do the screens show for `O=C(c1cccc(F)c1)N1CCN(c2ncnc3c2c(-c2ccccc2)cn3-c2ccccc2)CC1`?
Anaer choline gr: inactive; Anaer choline gr early: -0.47

Results for Fc1ccc(F)c(-c2nc(-c3ccc4nncn4c3)no2)c1 ?
Anaer choline gr: inactive; Anaer choline gr early: 0.38

Results for Cc1ccc(NC(c2cccnc2)c2ccc3cccnc3c2O)cc1C (stereo unspecified) ?
Anaer choline gr: inactive; Anaer choline gr early: 0.08

How did Cc1nnc(NC(=O)CSc2nnc(Cc3c(C)nc4c(C)cccn4c3=O)n2C)s1 do in these assays?
Anaer choline gr: inactive; Anaer choline gr early: 0.07

How did CN(CCc1noc(-c2ccc(C(=O)N3CCCC3)cc2)n1)C(=O)NCCc1ccccc1 do in these assays?
Anaer choline gr: inactive; Anaer choline gr early: 0.24

What do the screens show for `CCOc1ccccc1NC(=O)c1scc(-c2ccccc2)c1-n1cccc1`?
Anaer choline gr: inactive; Anaer choline gr early: 1.5

Results for Cn1cc(S(=O)(=O)N2CCCCC2)cc1C(=O)Nc1ccc2c(c1)OCCO2 ?
Anaer choline gr: inactive; Anaer choline gr early: 0.51

What do the screens show for `Cc1csc(-c2csc(S(=O)(=O)N3CCN(c4ccccc4)CC3)c2)n1`?
Anaer choline gr: inactive; Anaer choline gr early: 1

How did CCCn1nnc2cc(S(=O)(=O)N3CCCC(C(=O)N4CCC(C)CC4)C3)ccc21 (stereo unspecified) do in these assays?
Anaer choline gr: inactive; Anaer choline gr early: -1.7

Results for COc1cc(C2CC(=O)Nc3nc(N)[nH]c(=O)c32)ccc1OCc1ccc(C)cc1 (stereo unspecified) ?
Anaer choline gr: inactive; Anaer choline gr early: 0

How did CC(C)(C)[C@]1(O)CCN2C[C@H]3c4ccccc4CCc4cccc(c43)[C@@H]2C1 do in these assays?
Anaer choline gr: inactive; Anaer choline gr early: 0.31&-0.77&0.7

What do the screens show for `O=C(CCCn1nc(-c2ccccc2)c2ccccc21)NCc1ccc(Cl)cc1`?
Anaer choline gr: inactive; Anaer choline gr early: -0.21

What do the screens show for `Cc1ccc2[nH]cc(CCNC(=O)CS(=O)Cc3cnn(-c4ccccc4)c3-n3cccc3)c2c1` (stereo unspecified)?
Anaer choline gr: inactive; Anaer choline gr early: -1.7

Results for CN(C(=O)CSc1nc(-c2ccccc2)nc2cc(=O)[nH]n12)c1ccccc1 ?
Anaer choline gr: inactive; Anaer choline gr early: -0.54

How did COC(=O)c1cc2oc3ccccc3c2n1Cc1ccc(Cl)cc1 do in these assays?
Anaer choline gr: inactive; Anaer choline gr early: 0.48

What do the screens show for `Cc1ccc(Cn2ccn(-c3ccccc3)c(=O)c2=O)cc1`?
Anaer choline gr: inactive; Anaer choline gr early: 0.49

Results for CCCC(=O)NCC1(N2CCOCC2)CCCCC1 ?
Anaer choline gr: inactive; Anaer choline gr early: 0.49

Results for O=c1c2n[nH]c(=S)n2ccn1-c1ccc(F)cc1 ?
Anaer choline gr: inactive; Anaer choline gr early: 0.77

How did Cc1nc2ncnn2c(N2CCN(C(C)C)CC2)c1C do in these assays?
Anaer choline gr: inactive; Anaer choline gr early: -0.61

How did Cn1nc(C(=O)Nc2ccccc2)c2c1CCN(C(=O)CCC(=O)N1CCCC1)C2 do in these assays?
Anaer choline gr: inactive; Anaer choline gr early: -0.76

How did Cc1ccc(Cl)cc1N1CCN(c2ncc(S(=O)(=O)c3ccccc3)c(N)n2)CC1 do in these assays?
Anaer choline gr: inactive; Anaer choline gr early: 1.5

What do the screens show for `CCCNC(=O)c1ccc(-c2nc3cc(NS(=O)(=O)c4cnc[nH]4)ccc3n2C)cc1`?
Anaer choline gr: inactive; Anaer choline gr early: -1.2

What do the screens show for `CCCCc1nc2c3ccccc3n(CC(=O)N3CCN(c4ccc(F)cc4)CC3)c(=O)n2n1`?
Anaer choline gr: inactive; Anaer choline gr early: -0.88

What do the screens show for `Cc1cccc(N2CC(O)=C(c3nc4ccccc4n3C)C2=N)c1C`?
Anaer choline gr: inactive; Anaer choline gr early: -0.51

Results for CCc1cnc2c(c1SC(C)C)c(=O)n(C)c(=O)n2C ?
Anaer choline gr: inactive; Anaer choline gr early: -1.3

Results for O=S(=O)(c1cccc(F)c1)N1CCN(c2nc3ccccc3n3cccc23)CC1 ?
Anaer choline gr: inactive; Anaer choline gr early: -0.16

How did CC1(C)C(=O)N(CC(=O)Nc2ccc(F)cc2)c2ccc(S(=O)(=O)N3CCCC3)cc21 do in these assays?
Anaer choline gr: inactive; Anaer choline gr early: -0.06

Results for CC(=O)Nc1ccc(NC(=O)c2ccc(-n3nnc4cccnc43)cc2)cc1 ?
Anaer choline gr: inactive; Anaer choline gr early: 0.26

How did O=C(CCCC1=NS(=O)(=O)c2ccccc2N1)Nc1ccc(F)cc1F do in these assays?
Anaer choline gr: inactive; Anaer choline gr early: -1.5

Results for CCc1cc(Sc2ccc(NC(=O)C3CC3)cc2)n2ncnc2n1 ?
Anaer choline gr: inactive; Anaer choline gr early: 0.79

What do the screens show for `Cn1c(SCC(=O)N2CCCC2)nnc1-c1cc2ccccc2o1`?
Anaer choline gr: inactive; Anaer choline gr early: -0.83

Results for Cc1cc(C)nc(N2CCN(C(=O)c3cc(-c4ccccc4)n[nH]3)CC2)n1 ?
Anaer choline gr: inactive; Anaer choline gr early: 0.78

Results for Clc1ccc(N2CCN(c3ccccc3Cl)CC2)nn1 ?
Anaer choline gr: inactive; Anaer choline gr early: 0.39

How did O=C(CN1c2ccccc2NC2=C(C(=O)CCC2)C1c1cccs1)NC1CCCC1 (stereo unspecified) do in these assays?
Anaer choline gr: inactive; Anaer choline gr early: 0.08

What do the screens show for `Cn1c(=O)c2sccc2n2c(SCc3c(F)cccc3Cl)nnc12`?
Anaer choline gr: inactive; Anaer choline gr early: -0.11

How did COc1ccc(OC(=O)c2cc3c(C)nn(-c4ccc(F)cc4)c3s2)cc1 do in these assays?
Anaer choline gr: inactive; Anaer choline gr early: 0.96

How did O=c1cc(N2CCOCC2)oc2c(-c3ccccc3)cccc12 do in these assays?
Anaer choline gr: inactive; Anaer choline gr early: 0.69&0.7&0.79

How did Cc1ccc(C2CCCN2C(=O)c2cc(C3CC3)on2)cc1 (stereo unspecified) do in these assays?
Anaer choline gr: inactive; Anaer choline gr early: -0.9

How did Cc1csc(NC(=O)CN2C(=O)C(C)(C)c3cc(S(=O)(=O)N4CCCC4)ccc32)n1 do in these assays?
Anaer choline gr: inactive; Anaer choline gr early: -0.3

How did Cc1ccnc2c1NC(=O)c1cccnc1N2C1CC1 do in these assays?
Anaer choline gr: inactive; Anaer choline gr early: 0.12&0.6&0.38

Results for O=C(Nc1ccccc1)C1CC(=O)N(c2ccc3c(c2)CCN3C(=O)C2CCC2)C1 (stereo unspecified) ?
Anaer choline gr: inactive; Anaer choline gr early: 0.69

What do the screens show for `CCN(CC)CCNCc1ccc(-c2ccc(OC)c(Cl)c2)o1`?
Anaer choline gr: inactive; Anaer choline gr early: 0.53

How did CNC(=O)c1ccc(-c2nc(CN3CCN(C(=O)Nc4ccc(F)cc4F)CC3)c(C)o2)cc1 do in these assays?
Anaer choline gr: inactive; Anaer choline gr early: -0.06

How did CCN1C(=O)CCc2cc(NS(=O)(=O)c3ccc(C)cc3)ccc21 do in these assays?
Anaer choline gr: inactive; Anaer choline gr early: -1.1

Results for COCCNC(=O)c1ccc(CSc2nc3cccnc3n2Cc2ccccc2)cc1 ?
Anaer choline gr: inactive; Anaer choline gr early: 0.21

Results for COc1cccc(CSc2nc3ccncc3n2Cc2ccc(C(=O)NCC3CCCO3)cc2)c1 (stereo unspecified) ?
Anaer choline gr: inactive; Anaer choline gr early: 0.49

How did CCc1c(C)nc2ncnn2c1Sc1ccccc1NC(=O)C1CC1 do in these assays?
Anaer choline gr: inactive; Anaer choline gr early: -0.81

Results for NC(=O)c1nc(Nc2ccccc2)sc1NC(=O)CC1CCCC1 ?
Anaer choline gr: inactive; Anaer choline gr early: 0.23

How did CN1CCN(C(=O)C2(c3ccc(NS(C)(=O)=O)cc3)CCCCC2)CC1 do in these assays?
Anaer choline gr: inactive; Anaer choline gr early: -1.1

How did COc1ccc(C2C3=C(CC(c4ccc(O)c(OC)c4)CC3=O)Nc3onc(C)c32)cc1O (stereo unspecified) do in these assays?
Anaer choline gr: inactive; Anaer choline gr early: -0.11

Results for COc1ccc(C2CC(c3c(O)n(C)c(=O)n(C)c3=O)=NN2)cc1 (stereo unspecified) ?
Anaer choline gr: inactive; Anaer choline gr early: 0.56

Results for CNS(=O)(=O)c1ccc2c(c1)N(C(C)=O)CCCS2 ?
Anaer choline gr: inactive; Anaer choline gr early: -1.2

How did CC(C)(C)c1csc(-c2csc(S(=O)(=O)Nc3ccc(Br)cc3F)c2)n1 do in these assays?
Anaer choline gr: inactive; Anaer choline gr early: 0.45

Results for c1ccc(-c2ccc(CNCC3CCCO3)o2)cc1 (stereo unspecified) ?
Anaer choline gr: inactive; Anaer choline gr early: -0.39

How did O=C(COc1ccc(F)cc1)Nc1ccnn1C1CCCC1 do in these assays?
Anaer choline gr: inactive; Anaer choline gr early: 0.64

What do the screens show for `COc1ccccc1N1CCN(S(=O)(=O)c2ccc3c(c2)C(C)(C)CN3C(C)=O)CC1`?
Anaer choline gr: inactive; Anaer choline gr early: 1.6

What do the screens show for `Cc1nc(-n2nc(C)c(Cc3ccc4c(c3)OCO4)c2C)sc1C(=O)N1CCCC1`?
Anaer choline gr: inactive; Anaer choline gr early: 0.5

What do the screens show for `CCc1ccccc1NC(=O)c1cnn2c(C)cc(C)nc12`?
Anaer choline gr: inactive; Anaer choline gr early: -0.9

What do the screens show for `COc1ccc(-c2noc(-c3cn(CC(=O)NC4CCCCC4)c4nc(C)ccc4c3=O)n2)cc1`?
Anaer choline gr: inactive; Anaer choline gr early: 0.55

How did CSc1ccc2c(c1)C(N1CCN(C)CC1)Cc1ccccc1S2 (stereo unspecified) do in these assays?
Anaer choline gr: inactive; Anaer choline gr early: -1.7&-3.1&-1.3&-1.9

What do the screens show for `CCCCSc1nnc2n1CCN2c1ccc(F)cc1`?
Anaer choline gr: inactive; Anaer choline gr early: -1.2

Bioassay records from PubChem BioAssay.

A portion of the library; count on the stated rates, not on these rows.
